CBX7 inh: CBX7 chromodomain binding inhibitors, primary screen, biochemical, AlphaScreen; Chromobox protein homolog 7 (Homo sapiens), O95931; AlphaScreen His6-CBX7 / biotin-H3K27me3 peptide binding; hits give low values; normalised signal (fraction of DMSO) (test concentration not listed); 1.1% of 66,000 active; AID 1224903, 2016; in the data active = normalised signal below about 0.5;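 also: 100 nL library stock added to about 20 µL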
Target sequence (O95931 whole entry, looked up): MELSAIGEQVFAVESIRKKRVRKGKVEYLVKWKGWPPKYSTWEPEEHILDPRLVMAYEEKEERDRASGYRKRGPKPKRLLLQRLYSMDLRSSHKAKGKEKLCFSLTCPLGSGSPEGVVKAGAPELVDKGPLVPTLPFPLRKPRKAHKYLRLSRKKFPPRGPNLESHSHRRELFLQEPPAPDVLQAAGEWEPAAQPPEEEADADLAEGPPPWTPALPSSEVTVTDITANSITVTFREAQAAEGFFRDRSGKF
CBX7 inh z-score: recorded beside CBX7 inh, whose call it bears; z-score; measured here: z-score of CBX7 signal; some inactives read as strong as hits; reference of the scale not given here;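 same signal on another scale; lower means less binding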
* marks the source's active call; other numbers are inactive results; & = joins results of further samples. A portion of the library; rates above refer to the full screens.

Compound,CBX7 inh,CBX7 inh z-score
Cc1cccc(C(=O)Nc2c3c(nn2-c2ccc(F)cc2)CS(=O)(=O)C3)c1,0.872,-1.44
CCCCSCCCNC(=O)C1CCCN(Cc2nc(-c3ccc(Cl)cc3)oc2C)C1 (centres undefined),1,0.0638
Cc1ccc(Nc2c(-c3ccccc3)nc3cccc(C)n23)cc1,0.906,-0.97
Cc1ccc(NC(=O)c2cncc(Br)c2)c(C)c1,1,-0.00436
CC(=O)Nc1ccc2c(C)cc(C)nc2n1,0.947,-0.725
COc1ccc(OC)c(NC(=O)c2sc3ncn(CC(=O)N4CCOCC4)c(=O)c3c2C)c1,1.03,1.06
C1=C(CCNc2nnc(Cc3cccnc3)c3ccccc23)CCCC1,1.02,0.627
COc1ccc(N2C(=O)C(CC(=O)Nc3ccc(Cl)cc3)N(Cc3cccs3)C2=O)cc1 (centres undefined),1.05,1.97
CCOC(=O)c1cnc2cc(C(F)(F)F)ccc2c1N1CCN(c2cccc(Cl)c2)CC1,1.01,0.246
O=c1c(S(=O)(=O)c2ccccc2)c[nH]c2cc3c(cc12)OCO3,1.01,0.516

Compound,CBX7 inh,CBX7 inh z-score
CCCCN1CC(C(=O)NCCc2ccccc2)CC1=O (centres undefined),1.05,2.37
COc1ccc(CN(C)CCc2ccccn2)cc1,0.685,-2.46
Cc1ccc(S(=O)(=O)C2(C(=O)Nc3cccc(Cl)c3C)CC2)cc1,1.04,1.37
Cc1cccc(Nc2nnc(-c3ccc(C)c(S(=O)(=O)NCC4CCCO4)c3)c3ccccc23)c1 (centres undefined),0.933,-0.75
Oc1ccccc1-c1cc(-c2ccccc2)nn1Cc1ccc(Cl)cc1,1.01,0.155
CCc1ccc(NC(=O)C2CCN(S(=O)(=O)c3cccnc3)CC2)cc1,1.12,3.35
O=C(C1CCN(c2nnc(-n3cccc3)s2)CC1)N1CCCCCC1,0.79,-0.828
O=C1CC(Cc2ccc(Br)cc2)C(=O)N1c1ccccc1 (centres undefined),1.04,1.51
CCOc1ccccc1NC(=O)c1c(NC(=O)c2ccc(C)cc2)sc2c1CCC2,1.09,3.02
Cc1oc(-c2ccccc2Cl)nc1CSCC(=O)N1CCc2ccccc21,1,0.0259

Some of the entries above, reformatted:
Results follow in this order: CBX7 inh	CBX7 inh z-score
> COc1ccc(CN(C)CCc2ccccn2)cc1
    0.685	-2.46
> Cc1ccc(S(=O)(=O)C2(C(=O)Nc3cccc(Cl)c3C)CC2)cc1
    1.04	1.37
> Cc1cccc(Nc2nnc(-c3ccc(C)c(S(=O)(=O)NCC4CCCO4)c3)c3ccccc23)c1 (centres undefined)
    0.933	-0.75
> Oc1ccccc1-c1cc(-c2ccccc2)nn1Cc1ccc(Cl)cc1
    1.01	0.155
> CCc1ccc(NC(=O)C2CCN(S(=O)(=O)c3cccnc3)CC2)cc1
    1.12	3.35

Remaining list, next part:
Compound,CBX7 inh,CBX7 inh z-score
CCOc1ccc(NC(=O)Cn2nc(-c3ccc(OC)cc3)ccc2=O)cc1,0.977,-0.308
CCOc1ccccc1-n1cnc2cc(C(=O)NCC(OC)OC)ccc21,0.859,-1.78
COc1ccc(NC(=O)CC2Sc3ccccc3NC2=O)cc1OC (centres undefined),0.983,-0.551
COC(=O)c1ccc(OCC(O)CN2C(=O)c3ccccc3C2=O)cc1 (centres undefined),0.981,-0.36
Cc1ccccc1OCc1nc(-c2ccccn2)no1,0.988,-0.172
COc1cc(OC)c(N2C(=O)c3nccnc3C2=O)cc1Cl,1.05,2.02
COc1ccc(-c2nc(CS(=O)(=O)CC(=O)NC3CCCCC3C)c(C)o2)cc1 (centres undefined),1.03,0.749
CCC1=Nc2cc(C(=O)NCC3CCCO3)ccc2Sc2ccc(Cl)cc21 (centres undefined),0.927,-3.47
CC1(C)CC(=O)C2=C(C1)NC(=O)CC2c1ccc2ccccc2c1 (centres undefined),1.16,1.06
O=C(Nc1ccc(-c2noc(COc3ccccc3Cl)n2)cc1)c1ccccn1,0.791,-0.825

Compound,CBX7 inh,CBX7 inh z-score
Cc1ccc(-n2nc3c(c2NC(=O)COc2ccccc2)CS(=O)(=O)C3)cc1,1.21,1.38
CCN(CC)S(=O)(=O)c1ccc2c(c1)N(CC(=O)Nc1cccc(C)c1C)C(=O)CS2,1.03,0.994
Cc1nnn(C23C[C@@H]4C[C@@H](CC(C(=O)N5CCN(c6ccccc6)CC5)(C4)C2)C3)n1,0.956,-0.559
COCCNC(=O)CS(=O)(=O)Cc1nc(-c2ccc(C)cc2)oc1C,1.12,0.26
COc1ccc(-c2noc(CCC(=O)NC(C)CCc3ccccc3)n2)cc1 (centres undefined),0.858,-2.17
CCOCCCNC(=O)CSc1nc2nc(C)c(Cc3ccccc3C)c(C)n2n1,1.03,0.0475
COc1ccc(OCc2nc3ccccc3n2C(C)c2ccccc2)cc1 (centres undefined),0.681,-2.28
CC(C)(C)c1ccc(-c2nc(-c3ccccn3)no2)cc1,0.658,-4.95
COCCNC(=O)CSc1nc(-c2ccccc2)[nH]c1-c1ccc(OC)cc1,0.798,-3.31
O=C(CC1Sc2ccccc2NC1=O)Nc1ccccc1 (centres undefined),0.935,-0.74

Compound,CBX7 inh,CBX7 inh z-score
COc1ccc2c(-c3ccccc3)cc(NCCCN(C)C)nc2c1,1.24,2.54
COc1ccc(C2(CNC(=O)Cc3ccccc3)CCCC2)cc1OC,0.977,-0.68
CCN(CC)CCNC(=O)c1cc(Nc2ccccc2OC)nc2ccccc12,1.14,0.143
CC(C)OCCCN1C(=O)c2ccccc2C1C(=O)NC1CCCCC1 (centres undefined),1.18,1.29
O=C(c1cc2n(n1)C(C(F)(F)F)CC(c1ccc(F)cc1)N2)N1CCN(Cc2ccccc2)CC1 (centres undefined),1.1,1.18
CCOc1ccc(-c2cc(C(=O)NCc3ccc(OC)cc3)c3ccccc3n2)cc1,1.06,1.45
CCc1ccc(NC(=O)Cn2nc(-c3ccc(OC)cc3)ccc2=O)cc1,0.939,-1.7
CC(C(=O)c1ccccc1)C1(O)C(=O)N(Cc2ccccc2)c2ccccc21 (centres undefined),0.905,-0.417
Cc1ccc(Nc2ncc(C(=O)NCC3COc4ccccc4O3)c3ccccc23)cc1Cl (centres undefined),1.28,11.4
Cc1ccc(Nc2nc(C)nc3c2oc2ccccc23)cc1,1.08,0.363

Five entries from above, ordered by the number in CBX7 inh z-score, low to high:
Molecule | CBX7 inh z-score
CC(C(=O)c1ccccc1)C1(O)C(=O)N(Cc2ccccc2)c2ccccc21 (centres undefined) | -0.417
CCN(CC)CCNC(=O)c1cc(Nc2ccccc2OC)nc2ccccc12 | 0.143
Cc1ccc(Nc2nc(C)nc3c2oc2ccccc23)cc1 | 0.363
O=C(c1cc2n(n1)C(C(F)(F)F)CC(c1ccc(F)cc1)N2)N1CCN(Cc2ccccc2)CC1 (centres undefined) | 1.18
Cc1ccc(Nc2ncc(C(=O)NCC3COc4ccccc4O3)c3ccccc23)cc1Cl (centres undefined) | 11.4

(listing goes on)
Compound,CBX7 inh,CBX7 inh z-score
Cc1ccc(C)c(NC(=O)C2CC2(c2ccccc2)c2ccccc2)c1 (centres undefined),1.01,0.477
Cc1nc2ccccc2n1CC(O)Cn1c2ccccc2c2ccccc21 (centres undefined),1.04,0.698
COc1ccc(C2CC(=O)N(CC(=O)Nc3ccc(F)cc3)c3ccccc3S2)cc1 (centres undefined),0.925,-1.25
CCCCN(CCCNC(=O)Cn1nc(-c2ccc(C)cc2)ccc1=O)Cc1ccccc1,1.02,0.819
COC(=O)c1ccc(C(=O)Nc2nc3ccc(NC(=O)C4CCCCC4)cc3s2)cc1,1,0.00273
CCOc1ccc(C(=O)Nc2cccc(-c3nc4ccccc4o3)c2)cc1Br,1.13,1.29
NS(=O)(=O)c1ccc(CCNc2ccc3nnc(-c4ccccc4)n3n2)cc1,1.01,0.155
COc1ccc(NC(=O)c2cn(-c3ccccc3)nc2-c2ccc(F)cc2)cc1,0.974,-0.358
c1ccc(-c2nnc(NCc3nc4ccccc4[nH]3)c3ccccc23)cc1,1,0.0458
O=C(NCc1ccccc1Cl)c1cc(Nc2ccccc2)nc2ccccc12,1.08,3.09

Compound,CBX7 inh,CBX7 inh z-score
O=C(NC(c1ccccc1)c1c(O)ccc2ccccc12)C(F)(F)F (centres undefined),1.01,0.0949
CCOc1ccc(CCNC(=O)C2CCN(c3nc4ccc(Br)cc4s3)CC2)cc1,0.99,-0.231
COc1ccccc1NC(=O)c1nn(C)c(=O)c2ccccc12,1.07,2.76
COc1cc2c(cc1OC)C(C(=O)N1CCN(c3ccccn3)CC1)C1c3ccccc3CCN1C2=O (centres undefined),1.06,1.69
Cc1ccc(S(=O)(=O)c2nc(-c3cccc(C)c3)oc2N2CCCCC2)cc1,0.918&0.833,-0.982&-1.89
CCc1cccc(NC(=O)C(CC(C)C)NS(=O)(=O)c2ccc3c(c2)CCN3C(C)=O)c1 (centres undefined),1.15,1.94
COCCCNC(=O)c1ccc2nc(N3CCOCC3)sc2c1,1.04,1.74
Fc1cccc(F)c1CSc1nnc(-c2cccnc2)n1-c1ccccc1,1,0.0295
CCOC(=O)c1[nH]c(C)c(C(=O)NCc2ccc3c(c2)OCO3)c1C,0.977,-0.293
COc1ccc(-c2noc(COc3ccc(C)cc3)n2)cc1,1.15,3.9

Compound,CBX7 inh,CBX7 inh z-score
CCOC(=O)c1cnc2c(C)cc(Cl)cc2c1Nc1ccc(O)cc1,1.1,0.42
COc1ccc(Cc2nnc(SCC(=O)Nc3ccc(OC)cc3)o2)cc1,0.915,-0.969
Cc1ccc(Nc2ncnc3c2oc2ccccc23)cc1,1.12,3.06
Cc1ccc2c(c1)c(-c1ccccc1)c(-c1ccccc1)n2CC(O)CN1CCCCCC1 (centres undefined),0.531,-6.81
Cc1cccc2c1-c1sc(C(=O)N3CCN(c4ccc(F)cc4)CC3)cc1CO2,1.05,1.58
Cc1ccc(-c2csc(NC(=O)c3ccccc3)n2)cc1,1.16,1.41
Cc1cccc(Nc2ncc(F)c(N3CCOCC3)n2)c1C,1.04,0.652
Cc1nc2c(cnn2-c2ccc(Cl)cc2)c(=O)n1-c1ccc(C(C)C)cc1,0.953,-0.749
CCCNC(=O)c1csc2c1CCCCC2,0.987,-0.171
COc1ccc(NC(=O)c2nn3c(C(F)(F)F)cc(-c4ccccc4)nc3c2Cl)cc1OC,1.04,1.54

Compound,CBX7 inh,CBX7 inh z-score
COCCCNC(=O)c1ccc2c(c1)N(Cc1cccc(Cl)c1)C(=O)c1ccccc1S2,1.05,0.16
Cc1sc2ncn(CC(=O)NC3CCCCCC3)c(=O)c2c1S(=O)(=O)N1CC(C)CC(C)C1 (centres undefined),1.04,0.446
Cc1ccc(-c2nnc(Nc3ccc(Cl)cc3)c3ccccc23)cc1S(=O)(=O)NC(C)(C)C,0.954,-0.864
O=C(Cn1c(SCc2cccc(F)c2)nc2ccncc21)Nc1ccc(Br)cc1F,0.942,-1.74
Cc1ccc(Nc2c(-c3ccsc3)nc3cnccn23)cc1,1.22,2.11
Cc1ccc(C(C)C)c(OCC(=O)Nc2nccs2)c1,1.03,1.3
N#Cc1nc(COc2ccccc2Cl)oc1NCCCn1ccnc1,0*,-43.7*
O=C(Nc1cccc(F)c1)C1CCCN(C(=O)c2cnn(-c3ccccc3)c2-n2cccc2)C1 (centres undefined),0.965,-1.74
Cc1ccc(N2C(=O)CC(Cc3ccc(Br)cc3)C2=O)cc1 (centres undefined),1.08,3.12
O=C(O)CCS(=O)(=O)c1nc(-c2ccc3c(c2)OCO3)cc(C(F)(F)F)n1,1.03,0.33

Compound,CBX7 inh,CBX7 inh z-score
COc1ccc(-c2cc(C(=O)NCc3cccs3)no2)cc1,1,0.0801
CCCCc1ccc(NC(=O)c2c(-c3ccccc3Cl)noc2C)cc1,0.967,-0.507
CN(C)S(=O)(=O)c1ccc(C(=O)Nc2nc(-c3ccc(C#N)cc3)cs2)cc1,1.05,1.84
O=C(Nc1nc(-c2ccc(F)cc2F)cs1)c1cnccn1,1.07,1.76
Cc1ccc(S(=O)(=O)N2CC=C(C(=O)NCc3ccc(F)cc3)CC2)cc1,1.07,0.905
O=C(NCCOC12CC3CC(CC(C3)C1)C2)c1cc2c(s1)-c1ccccc1OC2,1.12,1.75
Cc1ccc(C)c(NC(=O)C(=O)NCCCN2CCOCC2)c1,1.02,0.513
C#CCN1CCN(CCCN2CCc3[nH]c4ccc(F)cc4c3C2)CC1,0.958,-0.612
CC1CNC2(C1)O[C@H]1C[C@H]3[C@@H]4CC=C5C[C@@H](O)CC[C@]5(C)[C@H]4CC[C@]3(C)[C@H]1[C@@H]2C (some centres undefined),1.11,0.812
Cc1ccc(NC(=O)c2cc3n(n2)C(C(F)(F)F)CC(c2ccc4c(c2)OCO4)N3)cc1C (centres undefined),0.863,-0.137

Compound,CBX7 inh,CBX7 inh z-score
CC12C(=O)N(c3ccc(Cl)cc3)C(=O)C1C1C=CC2C1 (centres undefined),0.901,-1.57
COc1cccc(NC(=O)CCc2c(C)nc3nc(C)nn3c2C)c1,1.29,1.24
Cc1cc(N2CCCCC2)nc2ccc(N3C(=O)CCC3=O)cc12,0.967,-0.977
Cc1cccc(CN2CCN(CC(=O)NCC3CCCO3)C2=O)c1 (centres undefined),1.04,1.89
CCCCNC(=O)CCc1c(C)nc2cc(-c3ccccc3OC)nn2c1C,0.918,-1.35
CCc1cccc(NC(=O)C2c3ccccc3C(=O)N3CCc4cc(OC)c(OC)cc4C23)c1 (centres undefined),0.886,-3.08
COC(=O)c1c(NC(=O)C(F)(F)F)sc(Cc2ccccc2)c1C,1.04,0.774
CCc1ccc(-c2nc(CN3CCCC(C(=O)NCCc4ccc(OC)c(OC)c4)C3)c(C)o2)cc1 (centres undefined),0.957,-1.18
COc1ccccc1CNC(=O)C1CCN(S(C)(=O)=O)CC1,0.995,-0.265

Compounds listed so far that contain a furan ring, fused or not:
Compound,CBX7 inh,CBX7 inh z-score
Cc1ccc(Nc2nc(C)nc3c2oc2ccccc23)cc1,1.08,0.363
Cc1ccc(Nc2ncnc3c2oc2ccccc23)cc1,1.12,3.06

Assay outcomes: PubChem BioAssay, several laboratories
